# UCH37 DUB inh: inhibitors of human UCH37 deubiquitinase, primary screen, biochemical, Ub-AMC cleavage, fluorescence | purified proteasome/UCH37 | inhibition, % (test concentration not listed) | 0.33% of 330,000 active | AID 588478, 2011;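 active = mean of two replicates above 20%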;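 note: 0% = compound-free wells with enzyme and 100% = wells lacking proteasome; stock transfer was 100 nL into about 20 µL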
# Target sequence (Q9Y5K5 whole entry, looked up): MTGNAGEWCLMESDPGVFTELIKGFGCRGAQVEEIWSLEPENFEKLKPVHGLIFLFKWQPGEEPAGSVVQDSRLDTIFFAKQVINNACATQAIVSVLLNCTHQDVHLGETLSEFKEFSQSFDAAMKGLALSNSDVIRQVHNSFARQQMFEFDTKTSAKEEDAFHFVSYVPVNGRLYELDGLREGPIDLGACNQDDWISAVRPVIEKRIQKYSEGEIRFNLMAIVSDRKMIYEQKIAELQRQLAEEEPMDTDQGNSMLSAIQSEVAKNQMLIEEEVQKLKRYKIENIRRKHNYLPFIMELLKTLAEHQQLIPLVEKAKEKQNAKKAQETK
#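 Test system – human UCH37 enzyme supplied as purified proteasome complex · Incubation – 30 min preincubation with enzyme, 25 min cleavage at room temperature · Detection – AMC fluorescence from Ub-AMC cleavage, excitation 355 nm, emission 460 nm · Benchmarks – no-proteasome wells (full inhibition) and compound-free wells (no inhibition)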
# Beta2AR agonist: beta2AR agonists driving receptor internalization, primary screen, cell-based, FAP fluorogen, flow cytometry; Beta-2 adrenergic receptor (Homo sapiens), P07550; Am2.2-beta2AR cells; reference of the scale not given here; response, % (no concentration beside the values); 0.43% of 340,000 active; AID 504454, 2011;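 active = response above a set limit, near 3 SD of response in nonfluorescent compounds, cut at about 42% in these data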;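 note: stock transfer was 100 nL into about 11 µL; a reference agonist was the positive control; negative values mostly stem from fluorescent compounds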
# Target sequence (P07550 whole entry, looked up): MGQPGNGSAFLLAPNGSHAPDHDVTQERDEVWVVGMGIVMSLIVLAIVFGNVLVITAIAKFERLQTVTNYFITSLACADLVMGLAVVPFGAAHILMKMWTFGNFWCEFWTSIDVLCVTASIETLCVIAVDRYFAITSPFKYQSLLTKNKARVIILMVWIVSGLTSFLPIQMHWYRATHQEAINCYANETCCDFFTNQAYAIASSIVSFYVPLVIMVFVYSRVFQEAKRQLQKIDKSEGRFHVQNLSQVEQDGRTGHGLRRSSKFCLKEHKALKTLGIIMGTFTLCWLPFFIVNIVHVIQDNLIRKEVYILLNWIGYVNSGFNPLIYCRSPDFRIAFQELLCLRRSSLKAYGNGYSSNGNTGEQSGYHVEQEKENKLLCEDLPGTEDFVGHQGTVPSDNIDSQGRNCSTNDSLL
# E coli growth: E. coli growth inhibition, primary screen, OD600; Escherichia coli growth, 23 h; stronger effect = lower value; 0.21% of 330,000 active; AID 1053175, 2014; OD600 absorbance (concentration not given with the values);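 active = OD600 absorbance below the run mean of sample wells minus 3.6 SD, in any replicate, cut at about 0.56 in these data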;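 note: stock transfer was 300 nL into about 60 µL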
# HNF4A DNA FP: change in binding of human HNF4A to DNA, primary screen, biochemical, fluorescence polarization, FITC-DNA | 0.3% of 360,000 active | 1 h | AID 1224865, 2016 | Hepatocyte nuclear factor 4-alpha (Homo sapiens), P41235 | activity change, % at 10 µM; in the data active = activity change above about 30%, passing the limit was not always enough;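 note: controls were the assay level and a saturating level of protein; the project sought stronger binding though the title names inhibitors; some compounds called inactive have numbers as strong as hits; positive values seem to mean higher polarization but the record does not say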
# FGF22 binding: binders of human FGF22 protein, primary screen, FGF22 synaptogenesis inhibitor project, biophysical, thermal shift, single point; AID 651658, 2012; 1.5% of 340,000 active; calls only at 9.99 µM; Fibroblast growth factor 22 (Homo sapiens), Q9HCT0; recombinant FGF22 thermal shift, SYPRO orange fluorescence; percent of sucrose octasulfate shift, DMSO zero;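 active = melting point raised past a set limit in the mean and every replicate; inconclusive = no clear call; three in four hits are not shown here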
# ALR H2O2 inh: inhibitors of human ALR sulfhydryl oxidase, primary screen, biochemical, H2O2 detection, HRP-luminol luminescence, single point. inhibition, % (test concentration not listed). 3.8% of 290,000 active. FAD-linked sulfhydryl oxidase ALR (Homo sapiens), P55789. purified ALR, DTT oxidation;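 active = mean and each replicate at 75% or more; inconclusive = only one of the two met; inactive = neither met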;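 note: stock transfer was 7.5 nL into about 7.5 µL; 0% = neutral wells and 100% = wells with inactivated enzyme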
# Target sequence (P55789 whole entry, looked up): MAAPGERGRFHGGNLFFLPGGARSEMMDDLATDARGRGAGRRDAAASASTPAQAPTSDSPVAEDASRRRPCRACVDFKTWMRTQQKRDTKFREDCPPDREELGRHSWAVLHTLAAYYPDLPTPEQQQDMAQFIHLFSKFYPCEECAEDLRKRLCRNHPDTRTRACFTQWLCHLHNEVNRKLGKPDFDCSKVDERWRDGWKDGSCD
# LANA-H2B inh: blockers of LANA interaction with H2A/H2B – biochemical, FP readout, HTS, primary screen. Protein LANA1 (Human herpesvirus 8 type P (isolate GK18)), Q9QR71. inhibition, % (no concentration beside the values). cell-free LANA-H2A/H2B peptide, fluorescence polarization. 0.6% of 320,000 active; in the data active = inhibition mostly above about 10%, no sharp cut-off; inactive = mostly below about 6.7%;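 note: stock transfer was 7.5 nL into about 10 µL; 0% = median of vehicle wells and 100% = median of positive control wells; one replicate is shown; the record names a cut of 25% in any replicate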
# * = called active by the depositor; i = inactive; ? = inconclusive; · = no result given. The list is partial (hit frequency here may not be typical).
SMILES	UCH37 DUB inh	Beta2AR agonist	E coli growth	HNF4A DNA FP	FGF22 binding	ALR H2O2 inh	LANA-H2B inh
O=C(COc1ccc(Cl)cc1Cl)NN=C1c2ccccc2-c2ccccc21	·	-11	·	-1.8	·	·	-6.1
CCOC(=O)C1CCCN(S(=O)(=O)c2cccs2)C1 (centres undefined)	0.3	-4	0.66	-1.8	i	-3	8.0
CC1CN(c2ccc(Cl)cc2[N+](=O)[O-])CCN1S(C)(=O)=O (centres undefined)	3.3	-17	0.71	-0.8	i	2	6.5
COc1cc(C2N(Cc3ccccc3)CCN2Cc2ccccc2)ccc1OC(C)=O	1.2	3	0.69	0.6	i	9	-7.4
CCOc1ccccc1C1CC(=O)NC(SCC(=O)Nc2nccs2)=C1C#N (centres undefined)	·	-5	·	-3.0	·	-4	-0.9
O=C(Cn1nc(-c2ccccc2)c2ccccc2c1=O)NCCN1CCOCC1	-1.0	1	0.67	-3.1	·	-3	3.4
CCN(C1=NS(=O)(=O)c2ccccc21)N(CC)S(=O)(=O)c1ccc(C)cc1	0.4	10	0.69	-1.6	i	-17	-2.4
CC(C)n1nc(C(=O)Nc2nnc(SCc3c(Cl)cccc3Cl)s2)c2ccccc2c1=O	-11	7	0.8	-0.7	·	-4	-0.8
CCOc1ccc2nc(N3CCCC(C(=O)NC4CCCC4)C3)sc2c1 (centres undefined)	0.1	7	0.66	-3.9	i	-1	2.6
CCCc1c(C(=O)N/N=C/c2cccc3ccccc23)nnn1-c1nonc1N	·	·	·	-1.8	i	-2	-0.8
C=CC[C@H](CC(=O)OC(C)(C)C)C(=O)OC[C@H]1CCCN1C(=O)[C@@H](CC=C)CC(=O)N(CCO)Cc1ccccc1	-0.3	5	·	1.1	i	-4	-9.2
O=C(CN1CCN(c2ccccc2)CC1)N1N=CCC1c1ccccc1 (centres undefined)	2.6	23	0.7	-9.3	·	?	-8.6
O=C(NC1CC1)C1=C[C@@H](c2coc3ccccc3c2=O)C[C@@H](OCc2ccc(CO)cc2)O1	-1.6	-9	·	-1.0	i	2	1.2
CS(=O)(=O)c1ccc(C(=O)N2CCN(Cc3ccccc3)CC2)cc1	-0.3	-4	0.69	-1.8	i	1	-1.2
O=C(NCCC1=CCCCC1)C1CCN(S(=O)(=O)N2CCCC2)CC1	4.2	-8	0.68	1.9	i	0	0.5
CCc1nnc(NC(=O)CSc2nnc(C(C)NC(=O)c3ccccc3F)n2C)s1 (centres undefined)	0.2	1	0.67	-1.9	i	0	0.8
Cc1cc(C)c(C)c(S(=O)(=O)NCC(=O)N2CCCC2)c1C	6.7	1	0.7	-4.4	·	-24	-1.5
COC(=O)c1cccc(-n2sc3ccccc3c2=O)c1	5.4	9	·	-0.7	i	7	-2.7
CC(OC(=O)c1cccc(S(=O)(=O)Nc2cccc(C(F)(F)F)c2)c1)C(=O)Nc1ccc2c(c1)OCCO2 (centres undefined)	5.4	4	0.68	-0.2	i	-4	-2.1
COc1ccc(-c2nnn(CC(=O)Nc3ccc4c(c3)OCCO4)n2)cc1OC	0.7	13	0.69	2.9	·	2	3.2
COc1ccc(S(=O)(=O)N2CCOCC2)cc1NC(=O)CSc1cccc[n+]1[O-]	4.5	3	0.68	-1.8	·	-23	-5.9
Cc1onc(C(=O)/C=C/N(C)C)c1C(=O)Nc1nccs1	10	5	0.78	2.3	·	3	5.1
COc1ccccc1C1C(C(=O)c2cc3ccccc3o2)=C(O)C(=O)N1CCN(C)C (centres undefined)	6.2	-20	0.75	0.7	·	-2	-1.4
O=C(CS(=O)(=O)Cc1ccccc1)Nc1ccccc1Cl	4.7	13	0.71	-1.3	i	-1	-6.3
CC(C)CNS(=O)(=O)c1ccc(OCC(=O)Nc2ccc3c(c2)OCCO3)cc1	2.4	-3	0.63	-0.2	·	-2	1.5
Cc1cc(=O)n2nc(N3CCCC(C(=O)NC4CCC(C)CC4)C3)sc2n1 (centres undefined)	3.5	1	0.61	-0.7	i	6	-0.7
O=C(CSc1nnc2ccc(-c3ccncc3)nn12)c1cccs1	-0.7	0	0.65	4.5	i	0	1.2
CCN(CC)C(=O)C1CCN(Cc2cn(C)nc2-c2ccc(Oc3ccccc3)cc2)CC1	0.5	-4	0.72	-1.4	i	2	-3.4
NC(=O)CC(NC(=O)Cc1ccc(Br)cc1)c1ccc(N2CCC(Cc3ccccc3)CC2)c([N+](=O)[O-])c1 (centres undefined)	·	9	·	1.1	i	5	-4.7
CCCc1nn(-c2ccccc2)c2c1C(c1cccs1)C(C#N)=C(N)O2 (centres undefined)	3.6	-8	0.63	-3.5	i	58	-1.4

# Entries of single compounds, looked up by structure. Values in the order: UCH37 DUB inh, Beta2AR agonist, E coli growth, HNF4A DNA FP, FGF22 binding, ALR H2O2 inh, LANA-H2B inh
# Profile of O=C(COc1ccc(Cl)cc1Cl)NN=C1c2ccccc2-c2ccccc21 → ·, -11, ·, -1.8, ·, ·, -6.1
# Profile of COc1ccc(S(=O)(=O)N2CCOCC2)cc1NC(=O)CSc1cccc[n+]1[O-] → 4.5, 3, 0.68, -1.8, ·, -23, -5.9

# (list continues)
SMILES	UCH37 DUB inh	Beta2AR agonist	E coli growth	HNF4A DNA FP	FGF22 binding	ALR H2O2 inh	LANA-H2B inh
C/C=C(\C)C(=O)O[C@H](c1cc2ccc(=O)oc2cc1OC)[C@@H](O)C(C)(C)O	-24	5	·	-0.9	i	-6	-0.2
CCOc1ccccc1NS(=O)(=O)c1cc2c3c(c1)C(C)C(=O)N3CCC2 (centres undefined)	-0.9	-1	0.7	1.5	i	-2	-0.6
O=C(CNC(=O)c1ccccc1F)NC1=NCCS1	1.4	-4	0.75	4.0	i	2	-12
COc1ccc(C(=O)Nc2ccc3c(c2)nc(CN2CCCC2)n3C)cc1	-1.9	0	0.72	1.4	i	0	-3.4
COc1cc(/C=N/NC(=O)c2ccccn2)ccc1OC(=O)c1ccccc1Br	·	40	·	1.1	i	47	-2.3
COc1ccc(NC(=O)CSc2nnnn2C2CCCC2)c(OC)c1	2.5	0	0.64	3.1	i	·	·
Cc1nc(=O)c(-c2ccccc2)c(C)n1Cc1ccccc1	2.3	2	0.65	-3.2	i	-2	2.1
COc1cccc(C(=O)C2CCCN(Cc3cn(C)nc3-c3ccccc3)C2)c1 (centres undefined)	3.0	-9	0.72	-1.0	i	-3	4.9
CN(C)N=C1c2cc(S(=O)(=O)N3CCOCC3)ccc2-c2ccc(S(=O)(=O)N3CCOCC3)cc21	5.0	-1	0.64	-0.3	·	-27	3.3
O=C(NN1C(=O)c2ccccc2NC1c1ccccc1OCc1ccccc1)c1ccncc1 (centres undefined)	0.5	-7	0.76	2.2	·	·	1.6
COc1ccc2ccc3cccc[n+]3c2c1	·	-3	·	-1.9	i	·	·
O=C(Nc1ccccc1)c1cnc[nH]1	·	4	0.68	-4.8	·	-12	-0.7
CCOC(=O)c1cnc(=O)[nH]c1C	-1.4	·	0.78	·	·	-14	2.4
O=C1C(C=NC2CC2)=C(O)c2ccccc21	1.6	20	0.72	2.0	·	-5	-0.3
O=C(c1cc(COc2c(F)cccc2F)on1)N1CCC(c2ccncc2)CC1	1.2	-1	0.7	0.5	i	-7	-7.9
COC(=O)c1ccc(/C=N/OCC(=O)NCCc2ccc(OC)c(OC)c2)cc1	·	19	·	1.6	i	-1	11
CC1=C(C(=O)OCc2ccccc2)C(c2ccccc2)NC(=O)N1 (centres undefined)	0.9	-8	0.69	-0.3	i	-18	-1.3
Cc1ccc2nc(-c3ccc(NC(=O)C(C)N4C(=O)c5ccccc5C4=O)cc3)sc2c1 (centres undefined)	-12	0	0.72	1.9	·	1	1.4
CCOC(=O)Cc1nnc(NC(=O)CSc2nnc3c4ccccc4n(C)c3n2)s1	6.7	3	0.68	4.4	·	3	-2.2
CC(C)n1c(C(F)(F)F)nc2cc(C(=O)N3CCCCC3)ccc21	2.3	6	0.69	-0.9	i	-30	0.2
CC1(C)Cc2ccccc2C(=NC(Cc2c[nH]c3ccccc23)C(=O)O)N1 (centres undefined)	5.5	3	0.73	-0.3	i	34	-12
COc1ccccc1N1CCN(C(=O)CSc2nc(C)cc(=O)[nH]2)CC1	2.6	-8	0.62	-3.7	i	11	-1.1
COc1ccc(OC)c(/C=N/c2oc(-c3ccco3)c(-c3ccco3)c2C#N)c1	·	0	·	7.3	·	98*	3.0
Cc1cc(=O)[nH]c(SCC(=O)c2ccc(O)c(O)c2)n1	·	-3	·	-1.3	i	99*	5.7
CCCCn1c(N)c(N(CC(C)C)C(=O)c2ccc(N3C(=O)c4ccccc4C3=O)cc2)c(=O)[nH]c1=O	·	5	·	0.8	i	1	-2.8
CCC(C(=O)N1CCCCCC1)n1nc(C)n2c(cc3occc32)c1=O (centres undefined)	3.7	-11	0.68	-1.8	i	-4	4.1
O=C(C1=C[C@H](C2CC2)C[C@H](OCCCCO)O1)N1CCN(Cc2ccccc2)CC1	1.5	-2	·	-2.6	i	-13	-1.0
O=C(CN1C(=O)c2ccccc2C1=O)Nc1sc2c(c1C(=O)NCC1CCCO1)CCC2 (centres undefined)	-0.7	-4	0.74	1.9	·	·	·
FC(F)(F)c1cccc(Nc2nc(N3CCOCC3)nc(N3CCOCC3)n2)c1	3.6	15	0.68	0.6	i	-6	-6.9
CCCCOc1ccc(C(=O)NCC(=O)NCC(=O)OCC)cc1	1.3	-1	0.67	-0.6	·	-6	-4.1
COc1ccc(OC)c(C2CC(=O)OC3=C2C(=O)CC(C)(C)C3)c1 (centres undefined)	4.6	9	0.68	1.4	i	2	-2.1
Cc1[nH]c2ccccc2c1CCNC(=O)c1ccc2nccnc2c1	1.5	7	0.67	2.6	i	·	1.3
Nc1nc(SCc2ccc(Cl)cc2Cl)c2ncn(C3OC(CO)C(O)C3O)c2n1 (centres undefined)	1.3	-14	0.64	12	i	·	·
Cc1cccc(Oc2nccc(C(F)(F)F)c2C(=O)Nc2ccc(F)cc2F)c1	·	2	·	3.8	·	9	4.9
CC(OC(=O)c1cccnc1Cl)C(=O)NCc1ccccc1 (centres undefined)	4.7	2	0.72	2.1	i	-38	-3.6
CCOC(=O)C(Oc1ccc2c(-c3ccccc3)cc(=O)oc2c1C)c1ccccc1 (centres undefined)	3.8	1	0.74	0.1	i	-1	0.7
O=C(CN1C(=O)NC2(CCCC2)C1=O)OCc1ccc(F)cc1	1.6	7	0.71	-5.4	·	-10	-3.5
CCc1ccc(NC(=O)CSc2nc(NS(=O)(=O)c3ccccc3)cc(=O)[nH]2)cc1	3.0	-7	0.69	3.6	i	·	·
COC(=O)C1=CNC=C(C(=O)OC)C1c1cccc2ccccc12	i	2	0.68	-0.1	i	-5	-1.7
C=CCNC(=O)c1ccccc1NS(=O)(=O)c1ccc(SC)cc1	0.3	-6	0.65	1.8	·	1	1.2
C=C(C)CSc1nc(C)c(Cc2ccccc2)c(=O)[nH]1	4.9	0	0.69	-1.1	·	·	-75
Cc1ccc(C)c(Nc2nc3c(S(=O)(=O)c4ccccc4)nnn3c3ccccc23)c1	-491	9	0.76	-0.1	i	·	-1.5
c1ccc(Cc2nc(-c3ccccn3)no2)cc1	6.1	-8	0.64	-0.4	·	2	3.6
Cn1cnc2nc[nH]c2c1=S	2.1	-2	0.61	-1.7	i	·	·

# Source: PubChem (several laboratories)
